Source: PubChem (National Center for Advancing Translational Sciences (NCATS))
SARS PLpro yeast: SARS-CoV PLP inhibition in yeast; Potency, µM (highest dose often 32.9 µM), inactives show top-dose activity, positive = growth rescue; 330,000 tested, 0.19% active; S. cerevisiae expressing SARS-CoV PLpro, growth rescue; control for the full effect not named in the record; AID 485353; active means well fitted rising curve with a large enough effect; inconclusive means small, poorly fitted or top-dose-only effect; inactive means no such curve, though single readings can be large or run the other way; note: 0% is about no effect; nearly all actives have a fitted effect of over 55% in size; growth read by luminescence after 48 h
Cruzain inh noDet: cruzain (T. cruzi) inhibition without detergent; P25779; purified cruzain, Z-FR-AMC fluorescence, no detergent; Potency, µM, without a hit: max response, negative = inhibition, most hits filed as inhibitors; 200,000 tested, 2.3% active; AID 1476;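 note: plate controls were enzyme without inhibitor for no effect and buffer without enzyme for full effect; nearly all actives have a fitted effect of over 40% in size; top concentration of the series not given in the record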
Target sequence (P25779 123-467 limits assumed): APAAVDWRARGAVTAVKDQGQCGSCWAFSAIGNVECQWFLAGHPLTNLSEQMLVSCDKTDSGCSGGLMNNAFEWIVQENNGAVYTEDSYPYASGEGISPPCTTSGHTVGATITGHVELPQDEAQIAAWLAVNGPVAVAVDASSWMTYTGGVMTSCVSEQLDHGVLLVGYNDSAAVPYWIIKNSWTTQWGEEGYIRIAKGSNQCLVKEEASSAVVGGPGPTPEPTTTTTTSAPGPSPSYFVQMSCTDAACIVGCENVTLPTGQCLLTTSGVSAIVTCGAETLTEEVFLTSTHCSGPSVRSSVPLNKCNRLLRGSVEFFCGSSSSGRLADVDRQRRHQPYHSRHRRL
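Purified cruzain at 1.5 nM, pre-incubated 15 min with compound at room temperature in 100 mM sodium acetate pH 5.5, 5 mM DTT, 0.00005% Triton X-100. Reaction started with 2 uM Z-FR-AMC; AMC fluorescence increase over 60 s gives rate.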
2A StopGo: FMDV 2A StopGo reporter, luciferase signal. human cells with a luciferase reporter of 2A StopGo recoding; control for the full effect not named in the record. Potency, µM (highest dose often 57.9 µM), for the others: at the highest dose signal change, negative = less light. 410,000 tested, 1.2% active; active = well fitted falling curve with a large enough effect; inconclusive = small, poorly fitted or top-dose-only effect; inactive = no such curve, though single readings can be large or run the other way; tested in HEK293T cells; note: % is set by controls: 0 for no effect and ±100 for the full control effect; nearly all actives have a fitted effect of over 45% in size; luciferase light after 4 h
RE007 growth inh: less growth of the S. pombe RE007 Vpr strain; 360,000 tested, 0.21% active; S. pombe RE007 Vpr strain, BacTiter-Glo ATP luminescence, 24 h; control for the full effect not named in the record; Potency, µM (series often up to 92.2 µM), for inactives: at the highest dose activity change, negative = less growth; active = well fitted falling curve with a large enough effect; inconclusive = small, poorly fitted or top-dose-only effect; inactive = no such curve, though single readings can be large or run the other way;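 note: % is set by controls: 0 for no effect and ±100 for the full control effect; nearly all actives have a fitted effect of over 50% in size; the assay follows cell death caused by Vpr and the record does not say whether a fall means rescue or toxicity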
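Fission yeast RE007 carrying one integrated HIV-1 vpr copy, seeded at OD 0.01 in PMG+AL medium with 23 nL pinned compound. Grown 24 h at 30 degrees; viability read by BacTiter-Glo luminescence after 5 min.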
MARV entry inh: inhibitors of Marburg virus binding or cell entry | Marburg virus pseudotyped entry inhibition, cell reporter; control for the full effect not named in the record; about a third of the inactives were read at about 46 µM | 300,000 tested, 1.8% active | Potency, µM (titrated, usually from 37.8 µM), inactives show at the top dose activity change, negative = inhibition, actives largely listed as inhibitors; active = well fitted inhibition curve with a large enough effect; inconclusive = small, poorly fitted or top-dose-only effect, or effect the other way; inactive = flat fitted curve, though single readings scatter; tested in HEK293 cells; about a fifth of its hits are not listed in these tables; note: % is set by controls: 0 for no effect and ±100 for the full control effect; luciferase read-out
Cruzain inh Det: blocks cruzain activity in presence of Triton detergent. Potency, µM, for the others: max response, negative = inhibition, actives largely listed as inhibitors. 200,000 tested, 0.43% active. purified cruzain, Z-FR-AMC fluorescence, 0.01% Triton. P25779;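 note: plate controls were neutral wells for no effect and buffer without enzyme for full effect; nearly all actives have a fitted effect of over 40% in size; top concentration of the series not given in the record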
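Z-FR-AMC hydrolysis (2 uM substrate) by cruzain (1.5 nM) monitored kinetically at ex 360/em 450 nm after 15 min room-temperature compound exposure; 0.01% Triton X-100, pH 5.5, 5 mM DTT.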
NS1 function inh: inhibitors of influenza NS1 protein function; AID 2326; 270,000 tested, 0.4% active; S. cerevisiae slowed by influenza A NS1, growth recovery by OD600; Potency, µM (titrated, usually from 46.1 µM), without a hit: top-dose activity, positive = more growth; active means well fitted rising curve with a large enough effect; inconclusive means small, poorly fitted or top-dose-only effect; inactive means no such curve, though single readings can be large or run the other way; note: nearly all actives have a fitted effect of over 50% in size
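S. cerevisiae expressing influenza A NS1, grown in glucose, washed, then diluted 1:100 into pH 6.0 -URA galactose medium with 23 nl compound. Growth recovery read as OD600; NS1-free strain serves as control.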
LASV entry inh: Lassa virus entry inhibition; Potency, µM (top dose mostly 37.9 µM), for the others: top-dose activity change, negative = inhibition, most hits filed as inhibitors; Lassa virus pseudotype entry inhibition, cell reporter; control for the full effect not named in the record; 300,000 tested, 1.2% active; active means well fitted inhibition curve with a large enough effect; inconclusive means small, poorly fitted or top-dose-only effect, or effect the other way; inactive means flat fitted curve, though single readings scatter; tested in HEK293 cells; note: % is set by controls: 0 for no effect and ±100 for the full control effect; nearly all actives have a fitted effect of over 50% in size; luciferase read-out
* hit, by the source's call; u = inconclusive; x = no result given; & = joins results of further samples; [ ] = dose if it differs, or a comment. Unless noted, calls come from the whole dose curve; as a rule, active = well fitted curve in the direction sought with a large enough effect; inconclusive = small, poorly fitted or top-dose-only effect, or another doubt; inactive = no such curve, though single readings can be large; an effect the other way counts as inactive or inconclusive. Potency is the fitted concentration of half-maximal effect.

item	structure	SARS PLpro yeast	Cruzain inh noDet	2A StopGo	RE007 growth inh	MARV entry inh	Cruzain inh Det	NS1 function inh	LASV entry inh
1	FC(F)(F)c1nnc2sc(-c3ccccn3)nn12	0%	-1%	14%	-11%	17%	5.0%	-3%	19%
2	Cc1ccc(-c2cn3cccnc3n2)cc1	-10%	x	30%	3%	4%[46.1 µM]	x	x	x
3	CCOC(=O)Cn1nc(C)c(NC(=O)COc2ccc(Cl)cc2C)c1C	x	-6%	u	x	-21%[46.1 µM]	0.2%	x	-7%[46.1 µM]
4	Cc1cccc(-n2ncc3c2CCCC3NC(=O)C2CCOCC2)c1C (stereo not drawn)	u	x	0%	6%	-29%	x	0%	-9%
5	CCc1ccc(OCC(=O)NNC(=O)c2cc(S(=O)(=O)N(C)C)ccc2N2CCCC2)cc1	-1%	x	-12%	11%	17%[46.1 µM]	x	x	u
6	Cc1cc(-c2nnc(CCC(=O)NCc3ccc(OC(F)(F)F)cc3)o2)no1	10%	x	18%	-8%	x	x	11%	x
7	O=c1cc2nc(-c3ccccc3)nc(SCCOc3ccc(Cl)cc3)n2[nH]1	x	9%	-8%	x	x	0.0%	x	5%[46.1 µM]
8	COc1cccc(C(=O)Nc2ccc3nc4n(c(=O)c3c2)CCCCC4)c1	x	6%	-13%&-7%	-2%	16%[46.1 µM]	-8.0%	x	-10%[46.1 µM]
9	O=C(c1cccs1)N(c1ccc(F)cc1)C1C=CS(=O)(=O)C1 (stereo not drawn)	0%	x	-15%	-9%	-8%[46.1 µM]	x	1%	-25%[46.1 µM]
10	c1coc(-c2nc3ccccc3s2)c1	x	x	30%[activator]	-11%	u	x	x	19%[46.1 µM]
11	CCN(CC)CCCC(C)NC(=O)c1cccc(S(=O)(=O)N2CCc3ccccc32)c1 (stereo not drawn)	-1%	x	1%	-15%	u	x	x	18%
12	O=c1c2ccccc2nc(-c2ccc(Br)cc2)n1Cc1ccccc1	-21%	-2%	x	5%	u	-1.6%	-61%	-18%
13	CC12CCC3(CO)COC(c4ccccc4O1)C2C3 (stereo not drawn)	4%	-6%	-18%	6%	u	-1.0%	u	-5%
14	COC(=O)c1cc(C(=O)OC)cc(-n2c(C)cc(C(=O)COC(=O)CNS(=O)(=O)c3ccc(C)cc3)c2C)c1	-9%	3%	-6%	-4%	4%	-10%	u	5%
15	O=C(COc1ccc([N+](=O)[O-])cc1)NNC(=O)c1cccs1	-1%	x	-1%	7%	x	x	2%	x
16	C/C(=N\NC(=O)CNC(=O)c1cccc(F)c1)c1ccc2ccccc2c1	0%	x	-4%	0%	-12%	x	-2%	-12%
17	CC(C)(C)OC(=O)CNC(=O)c1nc[nH]c1C(=O)NCc1ccc(CNC(=O)OC(C)(C)C)cc1	4%	x	u	4%	x	x	1%	x
18	C=CCn1c(=O)c2ccccc2n2c(SC(C)C(=O)Nc3nc(-c4ccccc4)cs3)nnc12 (stereo not drawn)	-18%	u	-6%	16%	-12%[46.1 µM]	-3.6%	-17%	-1%
19	CCCCOC(=O)CSc1ncnc2sc3c(c12)CCC(C)C3 (stereo not drawn)	x	4%	3%	x	10%[46.1 µM]	-3.5%	x	5%[46.1 µM]
20	O=C(O)CSc1nnc(-c2ccc(Cl)cc2Cl)n1-c1ccc(Br)cc1	8%	x	7%	2%	11%[46.1 µM]	x	u	11%[46.1 µM]
21	CCOC(=O)N1CCN(c2ccc(C(=O)c3cccc(F)c3)cc2)CC1	-5%	-4%	x	-12%	u	-7.1%	-5%	-29%
22	Cc1ccc(NC(=O)C=NOCC(=O)Nc2cc(C)cc(C)c2)cc1	-3%	x	11%	-17%	u	x	x	-1%
23	CC(CNC(=O)c1ccc(CSc2nc3ccncc3n2Cc2cccc(F)c2)cc1)c1ccccc1 (stereo not drawn)	x	4%	u	x	u	-5.6%	x	x
24	CCCCCCn1cnc2c(c1=O)c1nc3ccccc3nc1n2Cc1cccs1	5%	3%	u	-7%	3%	-2.1%	-1%	3%
25	CCC(=O)c1ccccc1OCC(=O)Nc1c(C)cccc1C	0%	x	-15%	3%	4%[46.1 µM]	x	x	-2%
26	O=c1c(/C=C(\O)c2ccccc2)nc2ccccc2n1-c1ccccc1	-5%	u	0%	4%	u	-2.8%	-5%	8%
27	CCCCN(C)CCNC(=O)c1c2c(nc3ccccc13)C(=O)N(C1CCCCC1)C2	x	-6%	-6%	x	x	-4.9%	x	-1%[46.1 µM]
28	CN(Cc1ccccc1)c1ccc(C(CC(N)=O)NC(=O)Cc2ccc(Br)cc2)cc1[N+](=O)[O-] (stereo not drawn)	-1%	x	u	-6%	x	x	1%	x
29	Cc1c(N=CC=Nc2c(C)n(C)n(-c3ccccc3)c2=O)c(=O)n(-c2ccccc2)n1C	-2%	3%	x	x	-3%	-0.5%	u	x
30	COc1ccc(CN2CCSc3sccc3C2=O)cc1	1%	x	9%	-25%	x	x	-6%	x
31	COc1ccc(NC(=O)c2nc[nH]c2C(=O)N[C@@H](C)c2ccccc2)cc1	-4%	x	-7%	6%	x	x	-37%	x
32	Cc1ccc(CNC(=O)c2ccc(-c3nc(CN4CCc5ccccc54)c(C)o3)cc2)cc1	x	-4%	-28%	x	x	-3.5%	x	4%[46.1 µM]
33	Cc1ccc(NC(=O)Cn2cc(C(=O)c3ccco3)c3ccccc32)c(C)c1	x	u	-25%	x	x	-4.7%	x	u
34	O=C(NCc1ccc(Cl)cc1)C1=Cc2cc(Cl)ccc2OC1	-4%	-5%	-18%	-27%	-22%	-5.5%	1%	-9%
35	CC(=O)Nc1ccc(C(=O)CSc2nc3ccccc3n2CC(=O)N2CCCC2)cc1	-1%	-23%	-8%	-5%	1%&-2%	-9.5%	3%	10%
36	COc1ccc(C)cc1NC(=O)NCc1ccccc1F	-1%	x	25%	0%	12%[14.2 µM]	x	-3%	6%
37	CC(C)(C)CN1C(=O)C(=O)NC[C@@H]1Cc1ccc(O)cc1	-2%	x	-15%	15%	x	x	-2%	x
38	O=C(c1ccc([N+](=O)[O-])o1)N1CCN(c2nc3c(F)cc(F)cc3s2)CC1	1%	x	0%	-4%	u	x	x	3%
39	COc1ccc(C(=O)NC(=S)NC(C)c2ccccc2)cc1 (stereo not drawn)	x	x	-2%	-9%	3%[46.1 µM]	x	x	u
40	COc1cc2c(cc1OC)CN(C(=O)C1CCCN1S(=O)(=O)c1ccc(F)cc1)CC2 (stereo not drawn)	3%	x	3%	-21%	-2%[46.1 µM]	x	-3%	-1%
41	COC(=O)CSc1ncc2c(n1)-c1ccccc1N(Cc1ccccc1C)S2(=O)=O	x	13µM*	-3%	x	x	0.0%	x	u
42	O=C(N/N=C/c1ccncc1)c1nc(-c2ccccc2)n2c1CCCCC2	-6%	-4%	-18%	0%	-25%	5.6%	-33%	-9%
43	O=C(NNS(=O)(=O)c1ccc([N+](=O)[O-])cc1)c1ccncc1	0%	x	6%	8%	1%[46.1 µM]	x	-6%	9%[46.1 µM]
44	CCOC(=O)N1CCN(C(=O)Cn2ncc3ccccc32)CC1	7%	11%	-17%	1%	x	-2.1%	-2%	x
45	O=C(O)c1cc([N+](=O)[O-])c(NCc2cccnc2)c([N+](=O)[O-])c1	1%	x	-2%	-9%	-2%[46.1 µM]	x	2%	1%[46.1 µM]
46	Cc1ccc(S(=O)(=O)Oc2ccccc2C=C2C(=O)N(C)C(=O)N(C)C2=O)cc1	-10%	x	u	4%	u	x	-12%	-10%
47	COc1ccc(NC(=S)Nc2ccc(OC)cc2OC)c(OC)c1	8%	-12%	-6%	-1%	u	-1.1%	16%	7%
48	O=[N+]([O-])c1cccc(-c2nc(NCc3ccccc3)c3ccccc3n2)c1	-1%	-1%	-1%	3%	0%	-4.0%	-1%	4%
49	COc1ccccc1C(=O)Nc1ccccn1	-5%	-6%	42%[activator]	-13%	14%&14%	4.7%	-4%	u
50	COCC(C)NC(=O)c1ccc(-n2nc(C(F)(F)F)cc2-c2cccs2)cc1 (stereo not drawn)	-18%	u	u	4%	u	-7.9%	12%	u
51	O=C(O)c1ccc(/C=N/Nc2nc(N3CCCCC3)nc(N3CCCCC3)n2)cc1	0%	x	-18%	7%	16%[46.1 µM]	x	10%	5%
52	CCCCn1c(=O)[nH]c(=O)c2c1nc(-c1ccc(-c3ccccc3Br)o1)n2CCOC	2%	7%	-19%	-24%	-10%	-1.7%	14%	-28%
53	COc1ccc2nc(SCC(=O)Nc3ccc4sc(C)nc4c3)c(C#N)cc2c1	-11%	-24%	-1%	-9%	u	7.9%	22%	2%
54	CCn1cc(CN2CCCC(CO)(Cc3ccc(F)cc3)C2)c2ccccc21 (stereo not drawn)	11%	x	-22%	-5%	u	x	-2%	-24%[46.1 µM]
55	CCC(C)N=Cc1c(O)n(-c2ccccc2)c(=O)[nH]c1=O (stereo not drawn)	1%	2%	8%	8%	-1%	-0.8%	2%	2%
56	CN1CCN(/N=C/c2ccc(-c3ccc([N+](=O)[O-])cc3)o2)CC1	1%	x	0%	-9%	x	x	-8%	x
57	Cc1onc(-c2ccccc2)c1C(=O)N/N=C/c1ccc([N+](=O)[O-])s1	-67%	-7%	u	-17%	u	-13%	-30%	u
58	Cc1cc(C)cc(N(CC(=O)Nc2ccccc2)C2=NC3CS(=O)(=O)CC3S2)c1 (stereo not drawn)	1%	x	u	-6%	x	x	-7%	x
59	CCOC(=O)Cc1nc(-c2ccc(Cl)cc2)n[nH]1	-4%	x	42%[activator]	2%	17%[46.1 µM]	x	-5%	u
60	O=C(CSc1nnc(NC2CCCCC2)s1)NCc1ccco1	-2%	x	12%	-16%	-1%[46.1 µM]	x	x	x
61	Cc1[nH]cnc1CSCc1ccc(F)cc1	5%	-6%	6%	2%	u	0.7%	-10%	u
